Bioassay records: PubChem, National Center for Advancing Translational Sciences (NCATS)
CtBP-E1A inh: inhibitors of CtBP/E1A interaction; AlphaScreen GST-E1A/His-CtBP binding, 1536-well; active compounds read low; control for the full effect not named in the record; activity change, % (no concentration beside the values); hit rate 0.49% among 340,000; AID 651724; in the data active means activity change below about -65%; inconclusive means about -30% to -65%; inactive means above about -30%; further: on the % scale 0 is the no-effect control and ±100 the full control effect
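AlphaScreen with 125 nM GST-E1A and 125 nM His-CtBP (5X stocks) in Tris pH 8.0, 300 mM NaCl, BSA, Tween 20, TCEP. Compounds preincubated 2 h at 37 deg C, then glutathione donor/nickel acceptor beads added for 1 h at 37 deg C in dark.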
Menin MLL FP FL: inhibitors of human menin-MLL interaction, wild-type MLL peptide; Fluorescence polarization, fluorescein-MLL peptide displacement from menin; FP activity change, % at 61.4 µM; 290,000 tested, under 10 active; AID 1766; inconclusive = falling polarisation curve, or a change in total fluorescence; inactive = total fluorescence flat and polarisation flat or rising; no compound was filed as active; the % refers to the polarisation; negative = inhibition;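 further: % of control where 0% means no effect; inhibitors lower the polarisation; unlabelled MLL peptide was the positive control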
Sfp PPTase inh: inhibitors of Bacillus subtilis Sfp phosphopantetheinyl transferase | Q9F4F7 | Biochemical Sfp PPTase activity, qHTS | Potency, µM, inactives show max response, negative = inhibition, most hits filed as inhibitors | hit rate 3.5% among 310,000 | AID 1490; active means well fitted inhibition curve with a large enough effect; inconclusive means small, poorly fitted or top-dose-only effect, or another doubt; inactive means no such curve, though single readings can be large or run the other way;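 further: the enzyme is Sfp with the accession as filed and its product quenches rhodamine fluorescence; potency means the concentration at half of the fitted maximal effect; 0% = enzyme reaction without inhibitor and -100% = no enzyme wells; top concentration of the series not given in the record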
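Sfp 15 nM + cpd, 15 min RT; start w/ rhodamine-CoA 5 uM, BHQ-2-YbbR 12.5 uM (final); 50 mM Hepes pH 7.6, 10 mM MgCl2, 0.01% NP-40, 0.01% BSA; read 525/598 nm at 0 and 30 min.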
ClpP mod: qHTS Assay for Activators of ClpP; AID 651965, 2013; ATP-dependent Clp protease proteolytic subunit (Bacillus subtilis (strain 168)), P80244; Potency, µM (titrated, usually from 57.5 µM), without a hit: at the highest dose activity change, negative = active; hit rate 1.9% among 340,000; purified B. subtilis ClpP, FRET peptide cleavage, 20 min; active = well fitted falling curve with a large enough effect; inconclusive = small, poorly fitted or top-dose-only effect; inactive = no such curve, though single readings can be large or run the other way; further: potency means the concentration at half of the fitted maximal effect; the source files actives as falling curves though it sought activators and does not explain the sign; nearly all actives have a fitted effect of over 65% in size; many hits overshoot -100%
Target sequence (P80244 whole entry, looked up): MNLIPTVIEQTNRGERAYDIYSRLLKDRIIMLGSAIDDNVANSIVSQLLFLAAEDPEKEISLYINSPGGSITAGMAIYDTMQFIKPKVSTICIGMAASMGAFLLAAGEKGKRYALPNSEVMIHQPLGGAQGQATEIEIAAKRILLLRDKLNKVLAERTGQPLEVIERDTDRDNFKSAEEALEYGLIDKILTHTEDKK
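Buffer: 100 mM Tris/HCl pH8, 100 mM KCl, 0.05% low protease BSA, 2.5% glycerol, 0.01% Tween-20. ClpP 10 microg/mL final; 20 min RT; delta FRET normalized to ADEP and DMSO controls.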
gsp antag: gsp mutant antagonism. Potency, µM (top dose mostly 76.9 µM), for the others: at the highest dose activity change, negative = inhibition, hits mostly inhibitors. hit rate 0.4% among 340,000. gsp-mutant cells, cAMP HTRF, 30 min; control for the full effect not named in the record; active = falling curve of any shape with a large fitted effect; inconclusive = falling curve, mostly with a smaller effect; inactive = flat or rising curve; cell line not stated here;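 further: intracellular cAMP measured with PDE inhibitor Ro 20-1724 present during compound exposure; potency means the concentration at half of the fitted maximal effect; on the % scale 0 is the no-effect control and ±100 the full control effect; nearly all actives have a fitted effect of over 65% in size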
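Measurement of cellular cAMP by homogeneous time-resolved fluorescence following a 30 min compound exposure at 37C. The PDE inhibitor […] was present throughout; the assay buffer was DPBS with 0.05% BSA and 0.005% Tween 20.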
TRPV1 potentiator: potentiators of human vanilloid receptor 1 (TRPV1); potentiation, % at 8.33 µM; hit rate 0.02% among 320,000; AID 540277; TRPV1-expressing cells, Fluo-8 calcium influx, capsaicin EC20 potentiation; host cell line not named in the record; control for the full effect not named in the record; Q8NER1; active means potentiation above 80%; inconclusive means 30% to 80%; inactive means below 30%; further: 0% is about no effect
Target sequence (Q8NER1 whole entry, looked up): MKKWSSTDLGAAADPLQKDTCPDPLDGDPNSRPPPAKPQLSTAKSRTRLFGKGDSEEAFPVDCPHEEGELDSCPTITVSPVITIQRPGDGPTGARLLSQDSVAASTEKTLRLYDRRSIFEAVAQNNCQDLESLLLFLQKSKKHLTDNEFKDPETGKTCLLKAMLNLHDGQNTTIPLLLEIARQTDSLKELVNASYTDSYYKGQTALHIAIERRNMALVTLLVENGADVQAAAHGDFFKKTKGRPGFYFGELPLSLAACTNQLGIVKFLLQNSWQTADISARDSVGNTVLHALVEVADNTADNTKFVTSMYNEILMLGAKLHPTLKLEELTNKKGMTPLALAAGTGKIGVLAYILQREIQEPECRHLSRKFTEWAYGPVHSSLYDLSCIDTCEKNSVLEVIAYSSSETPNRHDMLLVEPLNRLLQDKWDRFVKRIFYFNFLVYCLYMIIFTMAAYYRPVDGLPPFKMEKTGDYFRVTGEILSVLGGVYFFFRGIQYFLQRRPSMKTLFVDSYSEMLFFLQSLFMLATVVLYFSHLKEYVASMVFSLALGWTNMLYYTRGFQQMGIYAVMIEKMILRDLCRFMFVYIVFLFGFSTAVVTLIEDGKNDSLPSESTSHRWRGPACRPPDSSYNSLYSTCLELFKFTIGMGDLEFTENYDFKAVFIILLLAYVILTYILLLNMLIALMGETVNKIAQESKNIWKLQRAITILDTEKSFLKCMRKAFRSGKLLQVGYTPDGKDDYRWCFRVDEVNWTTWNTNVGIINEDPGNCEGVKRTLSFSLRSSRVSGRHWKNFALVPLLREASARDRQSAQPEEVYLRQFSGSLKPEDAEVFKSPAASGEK
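Cells expressing TRPV1 were dye-loaded with Fluo-8 and read kinetically: 10 s baseline, 3 min after compound (agonist portion), then 2 min after EC20 capsaicin (allosteric enhancer portion). Calcium-bound dye fluorescence at 480/520 nm.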
gsp agonist: agonists of gsp mutant (McCune-Albright syndrome) | gsp mutant cells, cAMP HTRF, 30 min; control for the full effect not named in the record | Potency, µM (doses to about 76.9 µM), for the others: top-dose activation (cAMP increase), most hits filed as activators | hit rate 0.13% among 340,000; active = well fitted activation curve with a large enough effect; inconclusive = small, poorly fitted or top-dose-only effect, or another doubt; inactive = no such curve, though single readings can be large or run the other way; cell line not stated here;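 further: phosphodiesterase inhibitor Ro 20-1724 added with compounds to block cAMP breakdown; potency means the concentration at half of the fitted maximal effect; nearly all actives have a fitted effect of over 60% in size; about a fifth of the inactives were tested at one dose only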
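Cells stably selected in G418 were plated at 2000/well, grown 16-24 hr, then given compounds in DMSO with the PDE inhibitor […] (300 uM solution added) for 30 min at 37C; cAMP was read by HTRF.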
* = called active by the depositor; i = inactive; ? = inconclusive; / = not tested or not shown; [ ] = another dose, or the depositor's remark.

canonical_smiles,Sfp PPTase inh,gsp antag,gsp agonist,CtBP-E1A inh,ClpP mod,Menin MLL FP FL,TRPV1 potentiator
Cc1ccc(-n2c(C)cc(C)c(C#N)c2=O)cc1,5.5%,11.8%,3.9%,-0.1,-20.7%,-1.8,-7.4
CCn1cc(C(=O)NCCc2ccc(Cl)cc2)c(=O)c2cc(S(=O)(=O)N(C)C)ccc21,12.6%,8.5%,?,-2.8,-0.8%,-4.0,23.6
COc1ccc(/C=C/C(=O)NCCN=C2NS(=O)(=O)c3ccccc32)cc1,25.3%,-12.8%,6.8%,-2.2,/,2.7,-2.7
O=C(C1=C[C@@H](C2CCCCC2)C[C@@H](OCCCCO)O1)N1CCN(Cc2ccc3c(c2)OCO3)CC1,6.3%,-15.4%,/,-5.9,-0.1%,0.2,-4.8
O=C1C2C3C=CC(C4CC34)C2C(=O)N1/N=C/c1c[nH]c2ccccc12 (stereo not given),-7.9%,6.0%,5.9%,3.6,/,-0.1,1.4
COc1ccc(-c2ccc(Nc3ccc(C(=O)N4CCOCC4)cc3)nn2)cc1OC,3.1%,6.3%,17.7%,-17.4,-4.2%,0.5,-1.3
COc1ccc(C2CC(=O)CC(=O)C2n2cncn2)cc1 (stereo not given),6.5%,5.5%,-1.2%,1.6,1.3%,1.5,-0.5
O=C(Nc1ccc2[nH]c(=O)[nH]c2c1)c1cccc([N+](=O)[O-])c1,8.6%,4.2%,-3.3%,/,0.1%,-1.6,5.4
Cc1ccc(Sc2ncccc2C(=O)NC2CCCCCC2)cc1C,8.5%,4.5%,28.3%,5.4,29.8%,6.4,-18.8
CC(C)OC(=O)NS(=O)(=O)c1cccc([N+](=O)[O-])c1,21.8%,6.7%,-75.8%[inhibitor],-0.8,-2.1%,-0.8,-11.5
Cc1ccc2nsnc2c1S(=O)(=O)N1CCOCC1,-1.0%,0.6%,-0.8%,0.5,0.9%,3.5,-7.4
COc1ccc(OC)c(S(=O)(=O)N2c3ccccc3CC2C)c1 (stereo not given),-1.0%,-3.7%,-0.7%,1.2,-0.6%,6.7,-14.5
O=S(=O)(c1ccc(Br)cc1)c1nc(-c2ccco2)oc1NCC1CCCO1 (stereo not given),5.6%,1.7%,-4.5%[15.4 µM],0.9,0.8%,6.0,-1.3
CCCOc1ccc(/C(O)=C2/C(=O)C(=O)N(CCN(C)C)C2c2ccco2)cc1 (stereo not given),-3.4%,4.2%,20.9%,2.5,-0.6%,13.8,5.4
CC(C)CCNC(=O)C(c1ccncc1)N(C(=O)Cn1nnc(-c2ccc(F)cc2)n1)c1ccccc1F (stereo not given),32.0%[activator],1.1%,-65.3%[inhibitor],/,-0.8%,22.6,12.9
CC(=O)c1ccc(NC(=O)CN2CCN(c3ccccc3)CC2)cc1,8.1%,-5.6%,2.0%,4.3,-1.1%,1.0,8.0
CCSC1=NCCN1C(=O)c1ccc(S(=O)(=O)N(C)C)cc1,7.2%,5.8%,-18.3%,10.2,-1.2%,2.5,5.6
COCCCN=C1NN=C(c2cc(C)n(Cc3ccco3)c2C)CS1,?,20.7%,-60.2%[inhibitor],1.3,-0.4%,7.0,11.8
COc1ccc(Br)cc1CN(C)CC(=O)Nc1cccc(S(=O)(=O)N2CCCC2)c1,/,-17.2%,11.6%,-7.4,/,/,/
COC(=O)[C@@H](NC(=O)c1ccccc1)[C@@H](C)O,8.6%,13.6%,-7.2%,5.1,0.1%,1.7,21.7
O=C(CSc1nccc(=O)[nH]1)NC1CCCc2ccccc21 (stereo not given),22.2%,-2.8%,-12.9%[15.4 µM],5.3,/,0.6,-0.1
CN(Cc1ccc(F)cc1)C(=O)c1cc(COc2ccc(F)cc2F)on1,6.5%,2.3%,-5.2%,17.3,/,1.8,-5.7
O=C(CN(C(=O)CCC(=O)Nc1nccs1)c1cccc(F)c1)NCc1ccc2c(c1)OCO2,11.4%,1.7%,-0.2%,-9.8,/,-5.1,-1.2
COc1cnn(-c2cc(Oc3ccc(C)cc3)ncn2)c(=O)c1Cl,17.1%,-0.9%,?,-3.1,1.1%,4.4,-5.9
CC1(c2ccc(C#N)cc2)NC(=O)N(CC(=O)Nc2cc(S(=O)(=O)N3CCOCC3)ccc2Cl)C1=O (stereo not given),2.5%,3.9%,1.3%,/,-2.0%,-1.8,14.9
CC1=CC(C)(C)N(C(=O)CSc2ncn[nH]2)c2ccccc21,14.2%,-0.5%,-39.6%[inhibitor],0.1,-2.4%,0.2,10.9
CCSC1=N/C(=C\c2cccnc2)C(=O)N1c1ccccc1,0.8%,8.0%,-0.9%,9.1,-14.7%,6.9,-4.2
O=C(CSc1nnc(-c2ccccc2F)n1C1CC1)NCc1ccco1,/,7.6%,1.2%,-1.8,-1.0%,/,-4.4
CC(=O)N(Cc1c(C#N)c2ccccc2n1C)c1ccccc1,-0.3%,-16.6%,2.1%,1.7,0.1%,-4.0,-5.3
COC(=O)C1=C(C)N(c2ccc(OC)cc2)C(C)=C(C(=O)OC)C1c1ccccc1,9.6%,?,10.5%,/,-12.6%,1.0,-9.7

Rewritten with values under each structure: part of the list above.
Values in the order: Sfp PPTase inh | gsp antag | gsp agonist | CtBP-E1A inh | ClpP mod | Menin MLL FP FL | TRPV1 potentiator
COc1ccc(OC)c(S(=O)(=O)N2c3ccccc3CC2C)c1 (stereo not given)
    -1.0% | -3.7% | -0.7% | 1.2 | -0.6% | 6.7 | -14.5
O=C(CN(C(=O)CCC(=O)Nc1nccs1)c1cccc(F)c1)NCc1ccc2c(c1)OCO2
    11.4% | 1.7% | -0.2% | -9.8 | / | -5.1 | -1.2
CCSC1=N/C(=C\c2cccnc2)C(=O)N1c1ccccc1
    0.8% | 8.0% | -0.9% | 9.1 | -14.7% | 6.9 | -4.2

The listing continues:
canonical_smiles,Sfp PPTase inh,gsp antag,gsp agonist,CtBP-E1A inh,ClpP mod,Menin MLL FP FL,TRPV1 potentiator
COc1ccc(/C=N/N=C2\CC3CCC2(C)C3(C)C)cc1O (stereo not given),7.3%,-7.8%,?,-4.9,0.8%,0.7,-12.1
Cc1ccc(C(=O)CSc2nnc(-c3ccccc3N)n2C)cc1,-6.4%,-15.9%,-3.7%,8.2,-1.2%,2.5,-6.4
Oc1c(Br)cc(Br)cc1CNc1ccccn1,8.1%,-17.0%,21.4%[15.4 µM],-9.7,/,46.8[activator],?
N/C(=N\OC(=O)c1cccs1)C1(c2ccc(Cl)cc2Cl)CC1,4.1%,8.2%,-8.6%[15.4 µM],9.0,/,2.2,-1.5
Cc1cccc(-c2nnc(SCC(=O)Nc3nc4c(s3)CCCC4)n2C)c1,6.9%,-22.2%,-6.8%,-8.7,-0.5%,-6.7,10.2
OCCC1CN(Cc2cccn2-c2nccs2)CCN1CCc1ccccc1 (stereo not given),11.9%,18.4%,-2.4%[15.4 µM],10.6,2.3%,0.1,-8.4
COc1ccc(CNC(=O)c2cc(C)nc3ccccc23)cc1OC,20.3%,7.3%,-3.9%[15.4 µM],8.7,/,2.8,-4.3
COc1ccc(-c2nc(CS(=O)(=O)CC(=O)NCCCc3ccccc3)c(C)o2)cc1,15.2%,-9.5%,-3.0%,/,?,-3.5,-23.2
O=C(O)c1cccnc1SC1CC(=O)N(Cc2ccccc2)C1=O (stereo not given),17.6%,0.8%,-1.5%,6.0,0.6%,1.3,-3.4
COc1cc2c(cc1OC)C1O[C@](CCCCN3C(=O)c4ccccc4C3=O)(C2)OC2=C1C(=O)CCC2,-6.7%,/,/,/,/,1.2[11.7 µM],i
O=C1CC(c2ccccc2)c2cccc(F)c21 (stereo not given),-6.4%,2.6%,-33.4%[inhibitor],/,1.1%,1.4,-8.4
CCc1nc(C)cn1S(=O)(=O)c1ccc2c(c1)OCCO2,/,5.7%,-6.4%[15.4 µM],1.2,/,/,/
Cn1c(=O)n(C)c2cc(NS(=O)(=O)c3ccccc3[N+](=O)[O-])ccc21,3.8%,-4.7%,3.8%,-6.8,-1.4%,/,-8.0
CC(C)CCN1C(=O)c2ccccc2C1C(=O)NCc1cccnc1 (stereo not given),4.6%,3.1%,-25.4%,6.1,0.7%,-1.1,5.8
O=c1[nH]c(C2CCN(S(=O)(=O)c3ccccc3C(F)(F)F)CC2)nc2c1nnn2Cc1ccccc1,-23.1%,-25.6%,-9.4%[15.4 µM],1.0,/,10.2,?
CC(OC(=O)C1=COCCO1)C(=O)NC1CCCCC1C (stereo not given),/,6.4%,-18.1%,/,-1.7%,/,-14.2
O=C(NCC(=O)N1CCN(c2ccccc2O)CC1)c1ccc2ccccc2c1,2.0%,10.7%,10.8%,-10.9,-7.3%,/,-3.8
O=C(NC(=S)Nc1cccc(O)c1)c1cncc(Br)c1,/,-2.6%,10.8%[15.4 µM],-4.4,/,/,/
CCOC(=O)C(=O)NNc1ccccc1C,-0.1%,0.8%,-34.9%,15.2,1.5%,0.1,-0.5
COC(=O)C1=C(C)N(c2ccccc2)/C(=C/c2cccs2)C1=O,-4.3%,-11.3%,1.6%,0.1,0.4%,0.2,-20.5
COc1ccccc1C(=O)Nc1nnc(SCC(=O)NCc2ccco2)s1,-7.1%,-3.3%,-15.6%,0.1,-1.4%,/,11.6
COc1ccc(CSc2nc(C)[nH]c2[N+](=O)[O-])cc1[N+](=O)[O-],10.3%,-15.1%,9.7%[15.4 µM],-20.7,0.9%,-2.0,2.6

Full records as entered above. Order of screens: Sfp PPTase inh | gsp antag | gsp agonist | CtBP-E1A inh | ClpP mod | Menin MLL FP FL | TRPV1 potentiator
Cc1cccc(-c2nnc(SCC(=O)Nc3nc4c(s3)CCCC4)n2C)c1 reads 6.9% | -22.2% | -6.8% | -8.7 | -0.5% | -6.7 | 10.2
COc1ccc(CNC(=O)c2cc(C)nc3ccccc23)cc1OC reads 20.3% | 7.3% | -3.9%[15.4 µM] | 8.7 | / | 2.8 | -4.3
